# ugtP null kill: compounds lethal to S. aureus RN4220 ugtP deletion mutant | OD600 growth, 16 h; some inactives read as strong as hits | growth inhibition, % (no concentration beside the values) | 330,000 compounds, 0.54% hits | AID 1259309;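 active = z-score under -3 and OD600 up to 0.15 on both plates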;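 note: plate controls were untreated wells for no effect and antibiotic for full effect; wells of about 80 µL received 100 nL stock; the first replicate is given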
# Autofluor counter: compound fluorescence in toxin protease inhibitor counterscreen | compound autofluorescence counterscreen, microsphere flow cytometry; active compounds read high | 360,000 compounds, 3.1% hits | fluorescence intensity (test concentration not listed) | AID 624483;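 active = at least 3 SD above the mean of all compounds, about 16000 in these data; inconclusive = too few beads counted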;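 note: 100 nL of 1 mM stock went into each well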
# Mtb hypoxia inh: inhibitors of hypoxia-regulated fluorescent reporter in Mycobacterium tuberculosis; fluorescence inhibition, % (concentration not given with the values); AID 1159583; 300,000 compounds, 0.1% hits; M. tuberculosis hypoxia-regulated fluorescent reporter, fluorescence;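 active = 35 to 45% if threefold the growth effect, above 45% if 1.5-fold the growth effect; inactive = the rest, general growth blockers included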;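 note: wells of about 50 µL received 100 nL stock; 0% = vehicle wells and 100% = reference inhibitor wells; whole bacteria with a GFP reporter of the hypoxia response; strong numbers were not always called active; many hits fall short of the cut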
# Sa RN4220 lethal: S. aureus RN4220 growth inhibition | OD600, 16 h | inhibition, % (test concentration not listed) | 330,000 compounds, 0.33% hits | AID 1259311;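 active = z-score of -3 or lower and OD600 up to 0.18 on both plates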;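 note: plate controls were untreated cells for no effect and reference antibiotic for full effect; stock transfer was 100 nL into about 80 µL; one replicate is shown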
# BJeLR lethal: BJeLR cell viability loss. 300,000 compounds, 0.17% hits. inhibition, % (no concentration beside the values). BJeLR (HRASV12) viability, CellTiter-Glo ATP luminescence, 48 h; reference of the scale not given here;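 active = replicate mean above 50%; inconclusive = above 50% but judged a plate artefact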;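 note: 50 nL library stock added to about 25 µL; numbers are from one replicate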
# PrP 5UTR inh: suppresses PrP 5' UTR mRNA reporter expression | cell-based PrP 5' UTR mRNA reporter, plate reader | inhibition, % (concentration not given with the values) | 340,000 compounds, 0.35% hits | AID 488862;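 active = every replicate at 50% or more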;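 note: 0 = median of the neutral control wells; tested in H4 reporter cells; numbers are from one replicate; inactives centre near -14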
# Mtb hypoxia inh growth: recorded beside Mtb hypoxia inh, whose call it bears; growth inhibition, %; measured here: M. tuberculosis growth (absorbance);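 0% = vehicle and 100% = reference antibiotic; read after six days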
# * hit, by the source's call; u = inconclusive; x = no result given.
no. | SMILES | ugtP null kill | Autofluor counter | Mtb hypoxia inh | Mtb hypoxia inh growth | Sa RN4220 lethal | BJeLR lethal | PrP 5UTR inh
1 | CCOc1cccc(C=NNc2ccc(S(=O)(=O)Nc3ccccc3C(=O)O)cc2[N+](=O)[O-])c1O | 9 | 3746 | 15 | 18 | 1.2 | x | -49
2 | Cc1onc(-c2ccccc2)c1C(=O)NCc1cccnc1 | 3 | 3395 | 13 | 12 | 9.7 | 0 | -4
3 | Nc1ncnc2c1cnn2-c1ccccc1 | 7 | 11072 | 9 | 5 | 3.9 | -2 | -13
4 | Cc1ccc(CNC(=O)NC2CCCCC2)cc1 | 3 | 4441 | 13 | 15 | 3.3 | 0 | -44
5 | COc1ccc(CNC(=O)c2ccc3ccccc3n2)cc1 | 3 | 3445 | 4 | -3 | 4.0 | -5 | -14
6 | CC(=O)c1ccc(OCCOc2ccc(C#N)cc2)cc1 | -1 | 3436 | 6 | 3 | 5.5 | -3 | -9
7 | COc1ccc(-c2oc3ccccc3c2C(=O)OCc2ccc(O)cc2)cc1 | 16 | 3609 | 7 | 3 | 9.7 | 0 | 9
8 | Cc1onc(-c2ccccc2)c1C(=O)Nc1ccc(NC(=O)c2c(-c3ccccc3)noc2C)cc1 | 5 | 5810 | 3 | 9 | 6.7 | -4 | -4
9 | Cc1ccccc1CSc1nncn1N | 0 | 4340 | 9 | 14 | 0.4 | -3 | -35
10 | CCOC(=O)c1sc(=NC(=O)c2cccc(Br)c2)n(C)c1C | 8 | 5447 | 5 | 3 | 3.2 | -1 | -154

# In another format: results already given
(3) Nc1ncnc2c1cnn2-c1ccccc1
(1) CCOc1cccc(C=NNc2ccc(S(=O)(=O)Nc3ccccc3C(=O)O)cc2[N+](=O)[O-])c1O
assay / compound	3	1
ugtP null kill	7	9
Autofluor counter	11072	3746
Mtb hypoxia inh	9	15
Mtb hypoxia inh growth	5	18
Sa RN4220 lethal	3.9	1.2
BJeLR lethal	-2	x
PrP 5UTR inh	-13	-49

# (next part)
no. | SMILES | ugtP null kill | Autofluor counter | Mtb hypoxia inh | Mtb hypoxia inh growth | Sa RN4220 lethal | BJeLR lethal | PrP 5UTR inh
11 | CCC(C)Sc1nnc(NS(=O)(=O)Cc2ccccc2)s1 (configuration not stated) | 6 | 3324 | 11 | 0 | 6.1 | 2 | -29
12 | COc1ccc(S(=O)(=O)N2CCOC23CCN(S(=O)(=O)c2ccc(F)cc2C)CC3)cc1 | -3 | 5145 | -2 | 8 | 0.6 | 2 | 7
13 | C=CCn1c(SCc2csc(-c3ccc(C)cc3)n2)nnc1-c1ccccc1OC | 90* | 2245 | -4 | 3 | -6.7 | 9 | 12
14 | O=S1(=O)CC=C(CSc2nc3ccccc3[nH]2)C1 | 12 | 4845 | x | x | 1.4 | 2 | -25
15 | COc1ccc2[nH]c3c(c2c1)CCN1C(=O)C(CC(=O)NC(C)(C)C)C[C@H](C(=O)N(C(C)C)C(C)C)[C@@]31C (some centres not stated) | 2 | 3133 | -11 | 1 | 1.9 | x | -17
16 | COc1ccc(NC(=O)CSc2nnc3c4c(nc(-c5ccccc5)n23)CC(C)(C)OC4)cc1 | 7 | 9320 | -2 | -4 | 7.3 | -22 | -17
17 | O=C(NCc1ccc2c(c1)OCO2)C1CCN(c2ccc(S(=O)(=O)N3CCCC3)cc2)CC1 | 11 | 19826* | -16 | 1 | -5.0 | -13 | -17
18 | COc1ccc2oc(C(=O)N3CCN(C(=O)c4ccco4)CC3)c(C)c2c1 | -2 | 6065 | 3 | 12 | 1.9 | -3 | -9
19 | CC1=C(C(=O)N2CCOCC2)C(c2ccsc2)C2=C(CCCC2=O)N1 (configuration not stated) | -1 | 22793* | 5 | 2 | 2.1 | 1 | -9
20 | CCC(C)(C)NC(=O)c1sccc1Oc1ccc(F)cc1[N+](=O)[O-] | -2 | 4277 | 2 | 3 | 9.7 | 6 | -19

# A different layout for part of the listing above.
(11) CCC(C)Sc1nnc(NS(=O)(=O)Cc2ccccc2)s1 (configuration not stated)
(12) COc1ccc(S(=O)(=O)N2CCOC23CCN(S(=O)(=O)c2ccc(F)cc2C)CC3)cc1
(13) C=CCn1c(SCc2csc(-c3ccc(C)cc3)n2)nnc1-c1ccccc1OC
(14) O=S1(=O)CC=C(CSc2nc3ccccc3[nH]2)C1
compound no.	11	12	13	14
ugtP null kill	6	-3	90*	12
Autofluor counter	3324	5145	2245	4845
Mtb hypoxia inh	11	-2	-4	x
Mtb hypoxia inh growth	0	8	3	x
Sa RN4220 lethal	6.1	0.6	-6.7	1.4
BJeLR lethal	2	2	9	2
PrP 5UTR inh	-29	7	12	-25

# Next results:
# Order of results: ugtP null kill	Autofluor counter	Mtb hypoxia inh	Mtb hypoxia inh growth	Sa RN4220 lethal	BJeLR lethal	PrP 5UTR inh
21) CN(C(=O)c1ccc(S(=O)(=O)NC2CCCC2)cc1)C1CCCCC1
    1	7218	8	1	1.3	-1	-12
22) N#CC1(c2ccccc2)CCN(S(=O)(=O)c2ccc(OC(F)(F)F)cc2)CC1
    19	3869	4	3	-3.3	5	-13
23) COc1cc(/C(C)=N/NC(=O)CSc2nncn2C)ccc1OCc1ccccc1Cl
    x	9596	x	x	x	0	-22
24) COc1ccc(N/N=C(\C=N\O)C(=O)c2ccc(OC)cc2)cc1
    x	2839	x	x	x	48	-59
25) CCCc1ccc(OCCNC(C)=O)cc1
    6	8098	1	-9	2.6	-5	-20
26) Cc1c(C(=O)O)oc2c1/C(=N\O)CC(C)(C)C2
    x	7018	x	x	x	-4	-3
27) c1ccc(Cn2c(-c3ccccc3)c[n+]3c2SCCC3)cc1
    11	x	9	17	1.3	3	-10
28) CCOc1ccc2nc(NC(=O)CCn3cccc3)sc2c1
    -10	6243	-5	3	-1.4	3	-35
29) COc1ccccc1OCCCn1c(=O)oc2ccccc21
    -13	4383	x	x	5.4	-1	-51
30) COc1ccc(CCNC(=O)c2cc3c(=O)n4ccccc4nc3n(C3CCCCC3)c2=N)cc1OC
    7	5032	-9	-3	4.5	-2	-1
31) Cn1c(=O)oc2cc(S(=O)(=O)Nc3ccc4c(c3)OCCO4)ccc21
    -9	21945*	4	10	6.6	8	-18
32) O=C(Nc1ccccc1C(=O)O)c1ccc(Br)c(S(=O)(=O)NCc2ccccc2)c1
    12	2245	2	7	3.6	10	-23
33) COc1ccccc1N1CCN(C(=O)c2c(-c3c(Cl)cccc3Cl)noc2C)CC1
    -1	3757	x	x	2.5	-2	-11
34) O=C(CN1C(=O)CC(c2ccccc2)S(=O)(=O)c2ccccc21)N1CCOCC1 (configuration not stated)
    -8	x	5	12	2.4	-14	x
35) Cn1nnnc1SCc1ccc([N+](=O)[O-])cc1
    11	1946	5	12	6.8	-4	-8
36) COc1ccc(C(C)(C)C)cc1NC(=O)c1ccc2ncsc2c1
    16	5661	9	12	4.4	-7	-11
37) COCCn1c(SC(C)C(=O)NC2CC2)nnc1-c1cccc(C)c1 (configuration not stated)
    2	u	-2	10	0.4	-10	-1

# In the list so far, these have a cyano group.
# Order of results: ugtP null kill	Autofluor counter	Mtb hypoxia inh	Mtb hypoxia inh growth	Sa RN4220 lethal	BJeLR lethal	PrP 5UTR inh
6) CC(=O)c1ccc(OCCOc2ccc(C#N)cc2)cc1
    -1	3436	6	3	5.5	-3	-9
22) N#CC1(c2ccccc2)CCN(S(=O)(=O)c2ccc(OC(F)(F)F)cc2)CC1
    19	3869	4	3	-3.3	5	-13

# Single records (already shown):
# Listed for `Nc1ncnc2c1cnn2-c1ccccc1` → ugtP null kill = 7; Autofluor counter = 11072; Mtb hypoxia inh = 9; Mtb hypoxia inh growth = 5; Sa RN4220 lethal = 3.9; BJeLR lethal = -2; PrP 5UTR inh = -13
# Listed for `O=C(CN1C(=O)CC(c2ccccc2)S(=O)(=O)c2ccccc21)N1CCOCC1` (configuration not stated) → ugtP null kill = -8; Autofluor counter = x; Mtb hypoxia inh = 5; Mtb hypoxia inh growth = 12; Sa RN4220 lethal = 2.4; BJeLR lethal = -14; PrP 5UTR inh = x

# Screening data: PubChem BioAssay, several laboratories
